Compound activity: PubChem, National Center for Advancing Translational Sciences (NCATS)
Sfp PPTase inh: qHTS Assay for Inhibitors of Bacillus subtilis Sfp phosphopantetheinyl transferase (PPTase); 4'-phosphopantetheinyl transferase ffp (Bacillus subtilis), Q9F4F7; Biochemical Sfp PPTase activity, qHTS; Potency, µM, for inactives: max response, negative = inhibition, hits mostly inhibitors; hit rate 3.5% among 310,000; active = well fitted inhibition curve with a large enough effect; inconclusive = small, poorly fitted or top-dose-only effect, or another doubt; inactive = no such curve, though single readings can be large or run the other way;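 also: the enzyme is Sfp with the accession as filed and its product quenches rhodamine fluorescence; potency is read from the fitted curve at half-maximal effect; 0% = enzyme reaction without inhibitor and -100% = no enzyme wells; top concentration of the series not given in the record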
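Buffer: 50 mM Hepes-Na pH 7.6, 10 mM MgCl2, 0.01% Nonidet P-40, 0.01% BSA. Enzyme 15 nM, pre-exposed to compound 15 min; substrates then added and fluorescence change tracked over 30 min.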
Menin-MLL FL inh: qHTS Assay for Inhibitors Targeting the Menin-MLL Interaction in MLL Related Leukemias: Competition With Fluorescein Labeled MLL-derived Peptide | Fluorescence polarization, fluorescein-MLL peptide displacement from menin | FP activity change, % at 61.4 µM | 290,000 tested, under 10 active | AID 1766, 2009; inconclusive = falling polarisation curve, or a change in total fluorescence; inactive = total fluorescence flat and polarisation flat or rising; no compound was filed as active; the % refers to the polarisation; negative = inhibition;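 also: % of control where 0% means no effect; inhibitors lower the polarisation; unlabelled MLL peptide was the positive control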
Numbers without * were called inactive; ? = inconclusive; · = not tested or not shown; & = joins results of further samples; [ ] = dose if it differs, or a comment.

SMILES	Sfp PPTase inh	Menin-MLL FL inh
NCCCC[C@H](NC(=O)[C@H](Cc1ccccc1)NC(=O)[C@H](CCCN=C(N)N)NC(=O)[C@@H](N)Cc1ccc(O)cc1)C(N)=O	14%	·
CC(C)C[C@H](NC(=O)[C@H](Cc1ccccc1)NC(=O)CNC(=O)[C@H](CS)N(C(=O)[C@@H](N)Cc1ccc(O)cc1)C(C)(C)C)C(=O)N([C@H](C(=O)O)[C@H](C)O)C(C)(C)C	19%	·
O[C@@H]1CCCC[C@@H]1N1CCC(c2ccccc2)CC1	13%	·
C[C@@H]1OC(=O)[C@H]2C[C@H]3CCCC[C@@H]3[C@@H](/C=C/[C@H]3CCC[C@H](C)N3C)[C@@H]12	29%	·
CN(CC(=O)N[C@H](CO)Cc1ccccc1)C(=O)[C@H](CCS(C)=O)NC(=O)[C@@H](N)Cc1ccc(O)cc1 (stereo partly specified)	15%	·
NCCc1cccc(O)c1	5%&35%	·
CC=C(C)C(=O)O[C@H]1C(C)=C2[C@@H]3OC(=O)[C@@](C)(O)[C@@]3(O)[C@@H](OC(=O)CCC)C[C@](C)(OC(C)=O)[C@@H]2[C@@H]1OC(=O)CCCCCCC	7%	·
CC(CN)CC(=O)O (stereo unspecified)	12%	·
C=C1C([C@@H](O)C[C@H](C)C2O[C@@]3(CCCCO3)CC[C@H]2C)OC2CC[C@@]3(CC[C@@H](/C=C/[C@@H](C)C4CC(C)=C[C@]5(O4)O[C@H](C[C@@](C)(O)C(=O)O)CCC5O)O3)OC2[C@@H]1O (stereo partly specified)	-2%	·
Fc1ccc(C(OCCN2CCN(C/C=C/c3ccccc3)CC2)c2ccc(F)cc2)cc1	45µM*	·
CC1(C)[C@@H](O)C[C@H]2[C@](C)(O)[C@@H]3CC[C@H]4[C@@H](O)[C@@]3(C[C@@H](O)[C@@]21O)C[C@@]4(C)O	22%&9%	·
NC(=O)[C@@H]1CCCN1C(=O)[C@H](Cc1ccccc1)NC(=O)[C@@H]1CCCN1C(=O)[C@@H](N)Cc1ccc(O)cc1	6%	·
C=CCN1CC[C@]23c4c5ccc(O)c4O[C@@H]2/C(=N/N=C2\CC[C@@]4(O)C6Cc7ccc(O)c8c7[C@@]4(CCN6CC=C)[C@@H]2O8)CC[C@@]3(O)C1C5	·	1.4
CCNC(=O)[C@H]1O[C@@H](n2cnc3c(N)ncnc32)[C@H](O)[C@H]1O	·	0.6
NC(=O)c1ccc(OCC(O)CN2CC=C(c3ccc(F)cc3)CC2)cc1 (stereo unspecified)	·	3.7
CCN(CC)c1ncnc2c1ncn2[C@@H]1O[C@H](COP(=O)(O)OP(=O)(O)C(Br)(Br)P(=O)(O)O)[C@@H](O)[C@H]1O	·	2.3
Oc1ccc2c3c1O[C@H]1c4oc5ccccc5c4C[C@@]4(O)C(C2)N(CC2CC2)CCC314 (stereo partly specified)	·	-7.6
Cc1o[nH]c(=O)c1CC(N)C(=O)O (stereo unspecified)	·	1.2
C[C@H]1C2Cc3ccc(O)cc3[C@]1(C)CCN2CC1CC1	·	2.8
CCCCN1C2CCC1CC(OC(c1ccc(F)cc1)c1ccc(F)cc1)C2 (stereo unspecified)	·	1.8
COc1ccc2c(c1)CCC1C2CC[C@@]2(C)C1CC[C@@H]2NCCCCCCN1C(=O)C=CC1=O (stereo partly specified)	·	4.7
CCCn1c(C)c(C(=O)c2ccc3ccccc3c2)c2ccccc21	·	-0.2
Ic1ccccc1CNC1C2CCN(CC2)C1C(c1ccccc1)c1ccccc1 (stereo unspecified)	·	0.1
COC(=O)C(N)CCCN=C(N)N[N+](=O)[O-] (stereo unspecified)	·	5.7
C[C@]12CCC3C(CC[C@H]4C[C@H](O)CC[C@]34C)C1CC[C@@H]2C(=O)CO (stereo partly specified)	·	-0.9
CCC(C)C1O[C@]2(C=CC1C)CC1CC(C/C=C(\C)[C@H](OC3CC(OC)C(O[C@H]4CC(OC)[C@@H](O)C(C)O4)C(C)O3)[C@@H](C)/C=C/C=C3\COC4C(O)C(C)=C[C@H](C(=O)O1)[C@@]34O)O2 (stereo partly specified)	14%	-2.5
CCN1C[C@]2(COC)C(O)C[C@H](OC)[C@@]34C5C[C@]6(O)C(OC)C(O)[C@](OC(C)=O)(C5C6OC(=O)c5ccccc5)C(C(OC)C23)C14 (stereo partly specified)	5%	-0.2
C[C@@H](Cc1ccc(OCC(=O)O)cc1)NC[C@H](O)c1cccc(Cl)c1	0%	7.4
CC(=O)O[C@H]1C[C@H]2CC[C@@H]3[C@H]4C[C@@H]([N+]5(C)CCCCC5)[C@@H](OC(C)=O)[C@]4(C)CC[C@@H]3[C@@]2(C)C[C@@H]1[N+]1(C)CCCCC1	15%	?
CC(C)[C@@]1(NC(=O)[C@@H]2C[C@H]3c4cccc5[nH]cc(c45)C[C@@H]3N(C)C2)O[C@]2(O)[C@H]3CCCN3C(=O)CN2C1=O	-5%	0.7[24.8 µM]
CCN1C[C@@]2(COC)CCC(OC)[C@]34C5C[C@]6(O)[C@@H](OC)C[C@](OC(C)=O)(C([C@H](OC)C23)[C@H]14)C5[C@H]6OC(=O)c1ccc(OC)cc1 (stereo partly specified)	29%	0.4
Cc1[nH]c2ccccc2c1CN(C)C	9%	-0.7
c1csc(C2(N3CCCCC3)CCCCC2)c1	18%	-15
OC[C@@H](O)[C@H]1O[C@@H]2OC(C(Cl)(Cl)Cl)O[C@H]2[C@H]1O (stereo partly specified)	15%	2.1
COc1cc(OC)c2c(c1)OC(c1ccc(OC)c(OC)c1)C(O)C2 (stereo unspecified)	-2%	3.0
COC(=O)C12CC3=C[C@H](CC3=O)Cc3ccccc3[C@@H]1CNC2=O (stereo partly specified)	-13%&-1%	-0.8&5.2
CC(C)CC(N)C1(c2ccc(Cl)cc2)CCC1 (stereo unspecified)	13%	-0.7
C=C1C2CCC3[C@@](CC[C@@H]4C(C(=O)O)CC(OC5OC(CO)C(OS(=O)(=O)O)C(OS(=O)(=O)O)C5OC(=O)CC(C)C)C[C@]34C)(C2)C1O (stereo partly specified)	18%	-9.9
COC(=O)[C@@H]1[C@@H](O)[C@@]2(O)c3c(OC)cc(OC)cc3O[C@@]2(c2ccc(OC)cc2)[C@H]1c1ccccc1	10%	-1.8[11.7 µM]
C=C(C)[C@H]1[C@H]2OC(=O)[C@@H]1[C@]1(O)C[C@H]3O[C@]34C(=O)O[C@H]2[C@@]14C	11%	-2.3[24.8 µM]
O=c1[nH]c(=S)n(CCC2=CCCCC2)c(O)c1C=NCc1cccnc1	-1%	1.9
CC(C)C[C@H]1C(=O)N2CCC[C@@H]2[C@]2(O)O[C@](NC(=O)[C@H]3C=C4c5cccc6[nH]c(Br)c(c56)C[C@H]4N(C)C3)(C(C)C)C(=O)N12	-11%	?
CC(O)CN(CCN(CC(C)O)CC(C)O)CC(C)O (stereo unspecified)	79µM*	-3.8
O=C1NC(=O)C(=Cc2ccc3c(c2)OCO3)C(=O)N1	50µM*	1.1
CNc1ccc2oc(C[C@H]3O[C@]4(CC[C@H]3C)O[C@H]([C@H](C)C(=O)c3ccc[nH]3)[C@H](C)C[C@H]4C)nc2c1C(=O)O	-10%	4.5
CC1CCC(C(C)C)C(OC(=O)c2ccccc2N)C1 (stereo unspecified)	31%[activator]	0.7
O=[N+]([O-])c1ccc(F)c([N+](=O)[O-])c1	15%	-3.0
C=C1[C@@H]2CC[C@H]3[C@@]4(C)C[C@@H](O[C@@H]5O[C@H](CO)[C@H](OS(=O)(=O)O)[C@@H](OS(=O)(=O)O)[C@@H]5OC(=O)CC(C)C)C[C@@H](C(=O)O)[C@H]4CC[C@@]3(C2)[C@H]1O	17%	-1.7[24.8 µM]
COc1ccc(C(=O)c2c(C)n(CCN3CCOCC3)c3ccccc23)cc1	1%	1.5
CC[C@H](C)[C@H](NC(=O)[C@@H](N)Cc1ccc(O)cc1)C(=O)NCC(=O)N[C@@H](CO)C(=O)N[C@@H](CCCN=C(N)N)C(N)=O	-3%	2.8

Following part
SMILES	Sfp PPTase inh	Menin-MLL FL inh
CCCCCCn1c(=O)c(C(=O)Nc2nnc(C)s2)c(O)c2ccccc21	16%	-3.2
c1nc[n]([Sn]([CH]2CCCCC2)([CH]2CCCCC2)[CH]2CCCCC2)n1	?	-1.1
CCC(C)n1c(=O)[nH]c(C)c(Br)c1=O (stereo unspecified)	12%	-11
c1ccc(C[C@@H](c2ccccc2)N2CCCCC2)cc1	-2%	18
CC[C@]1(O)CC(O[C@@H]2CC(N(C)C)C(O)C(C)O2)c2c(cc3c(c2O)C(=O)c2c(O)ccc(O)c2C3=O)C1C(=O)OC (stereo partly specified)	-28%	?
C/C=C(\C)C(=O)OC1C(C)=C2C(C1OC(=O)CCCCC)C(C)(OC(C)=O)CC(OC(=O)CCC)C1(O)C2OC(=O)C1(C)O (stereo unspecified)	28%	1.5
COP(=O)(OC)C(O)C(Cl)(Cl)Cl (stereo unspecified)	20%&4%	-3.4&-1.2
c1cc(Cc2cnc[nH]2)ccn1	0%&-8%	2.7&-3.9
CC1=C2CCC3C4CCC(=O)[C@@]4(C)CCC3[C@]2(C)CCC1=O (stereo partly specified)	-4%	-4.4
CN[C@@H](Cc1c[nH]c2ccccc12)C(=O)O	-5%	-1.3
CCC(=O)CCCCC[C@@H]1NC(=O)[C@H]2CCCCN2C(=O)[C@H]([C@@H](C)CC)NC(=O)[C@H](Cc2cn(OC)c3ccccc23)NC1=O	-17%	-2.1
CNC1C2CN3CCC(O2)C13 (stereo unspecified)	1%	-4.9
CC(=O)O[C@H]1CC[C@]2(C=O)C3CC[C@]4(C)[C@@H](C5=CC(=O)OC5)CC[C@]4(O)C3CC[C@]2(O)C1 (stereo partly specified)	21%	-5.2
CCCCC/C=C\C/C=C\CCCCCCCC(=O)NCCO	29%&-1%&-5%	1.0&-0.3
CCCN[C@@H]1CCc2c(OC)cccc2[C@@H]1C	-5%&10%	?
C[N+]1(C)CCO[C@](O)(c2ccc(-c3ccc([C@]4(O)C[N+](C)(C)CCO4)cc3)cc2)C1	14%	-2.7[24.8 µM]
Oc1ccc2c(c1)[C@@]13CCCCC1[C@@H](C2)N(CC1CCC1)CC3 (stereo partly specified)	7%	-2.2
COC(=O)COc1ccc(C[C@@H](C)NC[C@H](O)c2cccc(Cl)c2)cc1	-6%	-2.8
O=C(CN1CCCCC1c1cccnc1)c1ccccc1 (stereo unspecified)	-25%	?
CC(=O)CC(c1ccccc1)c1c(O)c2cccc(O)c2oc1=O (stereo unspecified)	-8%	-0.3

Single records, as listed above. Order of screens: Sfp PPTase inh, Menin-MLL FL inh
COP(=O)(OC)C(O)C(Cl)(Cl)Cl (stereo unspecified) in the list: 20%&4%, -3.4&-1.2
CCN1C[C@@]2(COC)CCC(OC)[C@]34C5C[C@]6(O)[C@@H](OC)C[C@](OC(C)=O)(C([C@H](OC)C23)[C@H]14)C5[C@H]6OC(=O)c1ccc(OC)cc1 (stereo partly specified) in the list: 29%, 0.4
c1cc(Cc2cnc[nH]2)ccn1 in the list: 0%&-8%, 2.7&-3.9
C[N+]1(C)CCO[C@](O)(c2ccc(-c3ccc([C@]4(O)C[N+](C)(C)CCO4)cc3)cc2)C1 in the list: 14%, -2.7[24.8 µM]
CC(=O)O[C@H]1CC[C@]2(C=O)C3CC[C@]4(C)[C@@H](C5=CC(=O)OC5)CC[C@]4(O)C3CC[C@]2(O)C1 (stereo partly specified) in the list: 21%, -5.2

(continued)
SMILES	Sfp PPTase inh	Menin-MLL FL inh
Cc1cccc(N2C(=O)NC(=O)/C(=C/c3ccc(-c4ccc(C(=O)O)c(Cl)c4)o3)C2=O)c1	45µM*	14
CC(N)Cc1ccccc1Sc1ccc(O)cc1 (stereo unspecified)	-1%	0.6
COC(=O)NC/C=C\c1nc(CC/C=C\C(=O)O[C@H]2C[C@H]3CC(=O)O[C@@H](/C=C\CC(C)C)C[C@@H]4CC[C@H](C)[C@H](C[C@@H](OC)C[C@H](C2)O3)O4)co1	6%	-4.1[11.7 µM]
CC(C)C1C(=O)O[C@@H]2CCN3CC=C(COC(=O)[C@](C)(O)[C@]1(C)O)[C@H]23 (stereo partly specified)	23%	-4.4
CC1O[C@@H](O[C@@H]2C(O)C[C@H](O[C@@H]3C(O)C[C@@H](OC4CC[C@@]5(C)C6CC[C@]7(C)C(C8=CC(=O)OC8)CC[C@@]7(O)C6CC[C@@H]5C4)OC3C)OC2C)CC(O)[C@H]1O (stereo partly specified)	2%	8.6
C[N+]1=Cc2cc3c(cc2CC1)OCO3	-6%	?
CCN1C[C@]2(C)CC[C@H](OC)[C@@]34[C@@H]2[C@H](OC(C)=O)[C@]2(OCO[C@@]25C[C@@H](OC)[C@@H]2C[C@@]3(O)[C@H]5[C@@H]2OC)[C@H]14	16%	-5.7[24.8 µM]
CNC[C@H](O)c1ccc(O)cc1	14%	2.6[24.8 µM]
CC12C=CC(=O)C=C1CCC1C2=CCC2(C)C1CC[C@@H]2C(=O)CN1CCN(c2cc(N3CCCC3)nc(N3CCCC3)n2)CC1 (stereo partly specified)	?	-0.9
CCC(N)C(O)c1ccc(O)c(O)c1 (stereo unspecified)	-8%	2.6
Clc1ccc(CO/N=C(\Cn2ccnc2)c2ccc(Cl)cc2Cl)c(Cl)c1	-21%	6.2
CCc1c(C(=O)OC)ncc2[nH]c3cc(OC)c(OC)cc3c12	-2%	3.5

Not all compounds are listed (hit frequency here may not be typical).
